# Compound activity deposited in PubChem BioAssay by National Center for Advancing Translational Sciences (NCATS).
# VACV mCherry inh = inhibitors of vaccinia virus infection (mCherry reporter signal) | 310,000 tested, 0.63% active | Vaccinia virus mCherry reporter infection, fluorescence; about a quarter of the inactives have no number | Potency, µM (doses to about 36.5 µM), for inactives: at the highest dose activity change, negative = inhibition, usual class: inhibitors | AID 720579; active = well fitted inhibition curve with a large enough effect; inconclusive = small, poorly fitted or top-dose-only effect; inactive = no such curve, though single readings can be large or run the other way; tested in A549 cells; also: nearly all actives have a fitted effect of over 35% in size; inactives centre near -10
# Vaccinia Venus = vaccinia inhibition (Venus reporter); Vaccinia virus Venus reporter expression, fluorescence; Potency, µM (titrated, usually from 36.5 µM), inactives show at the top dose activity change, negative = inhibition, hits mostly inhibitors; 330,000 tested, 0.46% active; AID 720580; active means well fitted inhibition curve with a large enough effect; inconclusive means small, poorly fitted or top-dose-only effect; inactive means no such curve, though single readings can be large or run the other way; tested in A549 cells; also: nearly all actives have a fitted effect of over 30% in size; inactives centre near -10
# Active calls of the source: *; i = inactive; u = inconclusive; x = no result given; & = joins results of further samples; ! = not confirmed by another sample; [ ] = another dose, or the depositor's remark. % is scaled to controls: 0 for no effect and ±100 for the full control effect; potency is read from the fitted curve at half-maximal effect.
SMILES,VACV mCherry inh,Vaccinia Venus
O=C1CCCc2cc(S(=O)(=O)NCC3CCC(C(=O)NCc4ccccc4Cl)CC3)ccc2N1 (configuration not stated),-3.7%,-2.4%
CCOC(=O)CN1C(=O)S/C(=C/c2ccc3c(c2)n(C)c(=O)n3C)C1=O,-8.8%,4.0%
Cc1ccc(C(=O)NCCN2CCNC2=O)cc1,i,2.3%
CN(C)c1ccnc(N(Cc2ccccc2)Cc2ccccc2)c1C#N,i,-11.8%
CC(=O)NCCc1c[nH]c2ccccc12,-6.7%&-2.7%&-22.9%,2.9%&-8.6%&-14.0%
COc1ccc(C(=O)CCc2ccccc2O)c(OC)c1,u,-11.9%
CC(C)OC(=O)CSc1nnc(-c2ccco2)n1N,i,-12.5%
COC(=O)C1=CN(Cc2ccc(OC)cc2)C=C(C(=O)OC)C1c1ccc(O)c(OC)c1,-0.6%,-12.0%
Cc1cccc(C(=O)NNc2ncnc3c2cnn3-c2ccc(C)c(Cl)c2)c1,-15.4%,2.9%
COc1ccc(C(=O)/C=C/c2ccc(O)cc2)c(O)c1CC=C(C)C,u,-19.7%
COc1ccc(NC(=O)Nc2cccc([N+](=O)[O-])c2)cc1Cl,u,u
O=C(CSc1nnc2c(Cl)cc(C(F)(F)F)cn12)NCc1ccc(F)cc1,-18.6%,1.1%
COc1cc(CN2CC(C)OC(C)C2)cc(OC)c1 (configuration not stated),1.0%,-9.1%
CC1(C)Cc2ccccc2C2=NNC(=O)C2=N1,u,28.2µM*
Cc1cc2c(c(SCC(=O)Nc3ccc(C)c(C)c3)n1)C(=O)OC2,-3.0%,5.3%
O=C(O)CC1(CC(=O)NCc2ccc(C(F)(F)F)cc2)CCCCC1,i,-10.4%
O=C(NNC(=O)C12CC3CC(CC(Cl)(C3)C1)C2)c1ccncc1,-7.0%,-15.4%
CC1=C/C(=N\N=C2\NC(=O)C(CC(=O)Nc3ccccc3F)S2)CC(C)(C)C1 (configuration not stated),-2.4%,-12.4%
CC(C)COC(=O)/C(C#N)=C/c1cn(Cc2ccccc2)c2ccccc12,-10.9%,-12.3%
O=c1cc(O)c2sc3nc4c(c(C(F)(F)F)c3c2[nH]1)CCCCC4,-14.0%,-4.5%
CN(C)C(=O)Oc1ccc(OC(=O)c2ccccc2)cc1,i,1.3%
CCOc1ccccc1-c1ccc2nccn2c1,-5.0%,-14.4%
CCc1ccc(NC(=O)C(C)OC(=O)Cc2cc(OC)c(OC)c(OC)c2)cc1 (configuration not stated),-22.5%,-12.6%
CCCN1CCC(NC2CCC(O)CC2)CC1 (configuration not stated),-17.4%,-13.7%
Cc1ccc2c(c1)C1CN(C)CCC1N2C(=O)c1ccccc1NS(=O)(=O)c1ccc(F)cc1 (configuration not stated),-13.3%,2.6%
CCOc1ccc(C(O)c2nccn2Cc2ccccc2)cc1 (configuration not stated),-6.1%[1.46 µM],-15.1%
CCc1ccccc1NC(=O)C1NC(=O)CC1c1ccccc1 (configuration not stated),-7.7%,3.8%
COc1cc(C(C(=O)NC2CCCC2)N(C(=O)c2ccco2)c2ccccc2C(C)=O)cc(OC)c1OC (configuration not stated),14.7%,-3.5%
N#Cc1c(C(F)(F)F)cc(-c2cccs2)nc1SCC(=O)Nc1cccc(Br)c1,u,u
CC1Cc2ccccc2N1CC(=O)Nc1ccc(Cl)c(S(=O)(=O)N(C)C)c1 (configuration not stated),-20.4%,-2.6%
CN1CCN(c2oc(-c3ccco3)nc2S(=O)(=O)c2ccccc2)CC1,x,-15.8%
CCOc1ccc(-c2cccc(NS(=O)(=O)c3cc([N+](=O)[O-])ccc3C)c2)nn1,i,-12.0%
COc1cc(CN(C(=O)COc2ccc(F)cc2)c2ccccn2)cc(OC)c1OC,-7.2%,5.1%
COc1cc(/C=N/NC(=O)c2cccnc2)ccc1OS(=O)(=O)c1cc(C)ccc1C,-18.4%,-13.0%
Cc1cc(-c2ccccc2)nc2cc(C(=O)Nc3ccc(Cl)c(Cl)c3)nn12,-25.8%,-20.2%
CCCNC(=O)CS(=O)(=O)Cc1nc(-c2ccccc2C)oc1C,i,-20.3%
Cc1ccc(C)c(NC(=O)CSc2nnc3n2CCCCC3)c1,-3.7%,-22.7%
CCOc1ccc(OCC)c(S(=O)(=O)NCc2ccccc2)c1,i,-1.3%
CCCOC(=O)c1ccc(NC(=O)c2c(Cl)ccc(Cl)c2OC)cc1,-17.8%,-3.6%
Cc1ccc(S(=O)(=O)Nc2nc(C)cc(N/N=C/c3ccc(O)cc3)n2)cc1,-7.0%,-14.7%
CC(C)(C)N(Cc1ccccc1)C(=O)CN1C(=O)c2ccccc2S1(=O)=O,i,-8.0%
CC(C)N1CC(C(=O)Nc2ccc(Cl)c(Cl)c2)CC1=O (configuration not stated),-7.1%,-23.9%
CCc1ccc(NC(=O)Cn2ncc3c(C)n(Cc4cccc(Cl)c4)c(C)c3c2=O)cc1,-23.5%,-29.1%
COc1cc(C2C(C(=O)c3ccc(C)o3)=C(O)C(=O)N2Cc2ccccc2)ccc1O (configuration not stated),u,-5.2%
COC(=O)c1cnn2c(C)c(Cc3c(C)cc(C)cc3C)c(C)nc12,15.3%,-7.5%
CC(=O)N(Cc1cccs1)Cc1cc2ccc(C)c(C)c2nc1Cl,4.4%,-9.3%
O=C(NCCCN1CCOCC1)c1ccc2c(c1)N(Cc1ccccc1F)C(=O)c1ccccc1S2=O (configuration not stated),-2.1%,-21.4%
O=c1[nH]c2c(c3c1CCCC3)CCCC2,i,-10.2%
O=S(=O)(c1ccccc1)N1CCN(S(=O)(=O)c2ccccc2)c2ccccc21,u,-18.1%
CCOC(=O)/C=C/CN(C(=O)OC(C)(C)C)S(=O)(=O)N1CC=CC1,-28.0%,-2.3%
Cc1cccc(C)c1N1CC(=O)N(c2c(C)cccc2C)CC1=O,1.8%,5.8%
Nc1nc(SCC(=O)N2N=C3/C(=C\c4ccco4)CCCC3C2c2ccco2)n[nH]1 (configuration not stated),-25.7%,-24.5%
CCCCNC(=O)C1(C)CCC(=O)N1CCOc1ccccc1 (configuration not stated),6.7%,-4.2%
COc1ccc(CCNC(=O)Nc2ccc([N+](=O)[O-])cc2)cc1OC,i,-25.9%
Cc1nn(-c2ncc(C(F)(F)F)cc2Cl)c(=O)n1-c1ccccc1,-6.4%,-5.0%
COCCN(C(=O)COC(=O)c1sccc1C)c1c(N)n(Cc2ccccc2)c(=O)[nH]c1=O,i,-8.2%
Cc1cc(C)nc(Nc2n[nH]c(-c3cccc4ccccc34)n2)n1,-17.3%,-4.8%
Cc1c(Cl)cccc1-n1ncc(C(=O)N2CCc3ccccc3C2)c1C1CCN(C(=O)OC(C)(C)C)CC1,-20.7%,-26.3%
CCCCc1c(-c2ccccc2OC)ncn1Cc1ccc(-c2ccccc2)cc1,u,u
C/C(=N\NC(=O)C(NC(=O)c1ccccc1)C(C)C)c1ccccc1 (configuration not stated),x,-12.3%
# New compounds follow
SMILES,VACV mCherry inh,Vaccinia Venus
COc1ccc(NC(=O)CCCN2C(=O)C(c3ccccc3)Oc3cccnc32)cc1OC (configuration not stated),-9.4%,-11.1%&-9.0%
C/C(CC(=O)NCc1ccco1)=N\NC(=O)Cc1ccc(-c2ccccc2)cc1,i,-11.9%
CCCOc1ccc(C(=O)Nc2sc3c(c2C(=O)OCC)CCCCC3)cc1,-3.6%,1.8%
CCOC(=O)N1CCN(c2cc(N3CCOCC3)c(F)cc2[N+](=O)[O-])CC1,-10.6%,-6.5%
O=C(NCc1ccc2c(c1)OCO2)c1cccc(C(=O)NCc2ccc3c(c2)OCO3)c1,-14.4%,-8.1%
COc1ccc(C2(C(=O)N3CCC(n4nc(-c5ccccc5)oc4=O)CC3)CC2)cc1,i,-8.6%
COc1ccc(CC(=O)N2CCc3cc(OC)c(OC)cc3C2)cc1,i,-11.2%
CCc1cn([C@H]2C[C@H](O)[C@@H](CO)O2)c(=O)[nH]c1=O,u,u
O=[N+]([O-])c1ccc(N2CCN(Cc3ccc([N+](=O)[O-])o3)CC2)cc1,-12.3%,-7.7%
CCCCn1c(O)c(C(CC)=Nc2cccc(C(=O)O)c2)c(=O)[nH]c1=O,x,-4.6%
COc1ccc(NC(=O)CC2Nc3ccccc3NC2=O)c([N+](=O)[O-])c1 (configuration not stated),-4.5%,-1.0%
COc1cc(/C=C/C(=O)OCC(=O)Nc2cccc(F)c2)ccc1O,-6.9%,-17.4%
CN1CCN(CCC(=O)N/N=C/c2ccccn2)CC1,-19.5%,-1.0%
CC(CC(=O)O)Nc1ccccc1O (configuration not stated),-14.7%,-3.2%
CCOc1ccccc1Nc1nnc(SCC(=O)NC(=O)c2cccn2C)s1,i,3.1%
COc1cccc(N2CCN(C(=O)C3CCCN(S(=O)(=O)c4cccc5nsnc45)C3)CC2)c1 (configuration not stated),-16.8%,1.0%
c1ccc(-c2ccccc2-c2nc(-c3cccnc3)no2)cc1,-22.3%,-19.4%
Cc1noc(C)c1COC(=O)c1csc2c1CCC(C)C2 (configuration not stated),-17.4%,-2.7%
CC(CC(=O)Nc1nncs1)c1ccccc1 (configuration not stated),x,-19.1%
Oc1ccc(/C=N/NC(=S)Nc2cccnc2)c(O)c1,u,u
COc1ccc(S(=O)(=O)N2CCCCC2)cc1NC(=O)CN1CCN(C(C)=O)CC1,i,-16.2%
COc1ccccc1C(=O)Nc1ccc(-c2cc(C(F)(F)F)nn2-c2ccccc2)cc1,u,-27.9%
Cc1ccc(-c2nn(C)c(=O)c3ccccc23)cc1CNC(=O)CSc1nc2ccccc2o1,-22.7%,-17.0%
CC(C)C(NC(=O)OC(C)(C)C)C(=O)NC(CCC(=O)OCc1ccccc1)C(N)=O (configuration not stated),i,-4.1%

# Reformatted: entries from further up
mol: Oc1ccc(/C=N/NC(=S)Nc2cccnc2)c(O)c1
  VACV mCherry inh: u; Vaccinia Venus: u

mol: COc1cccc(N2CCN(C(=O)C3CCCN(S(=O)(=O)c4cccc5nsnc45)C3)CC2)c1 (configuration not stated)
  VACV mCherry inh: -16.8%; Vaccinia Venus: 1.0%

# Single entries from the list:
# Result of COc1ccc(S(=O)(=O)N2CCCCC2)cc1NC(=O)CN1CCN(C(C)=O)CC1 in Vaccinia Venus: -16.2%
# Result of Cc1ccc(-c2nn(C)c(=O)c3ccccc23)cc1CNC(=O)CSc1nc2ccccc2o1 in VACV mCherry inh: -22.7%
# Result of CCOc1ccccc1Nc1nnc(SCC(=O)NC(=O)c2cccn2C)s1 in Vaccinia Venus: 3.1%

# Next compounds:
SMILES,VACV mCherry inh,Vaccinia Venus
COc1cc(NC(=O)c2ccccc2)ccc1NC(=O)Cc1ccccc1,-23.5%,u
O=C(NC1CCCCC1)Oc1cccc2ccccc12,-18.7%,-8.9%
O=C(CN(Cc1ccccc1)S(=O)(=O)c1ccccc1)N/N=C/c1ccc2c(c1)OCO2,-11.2%,-25.9%
Oc1ccccc1/C=N/n1c(-c2cccs2)n[nH]c1=S,-9.2%,2.7%
O=C(Nc1ccccc1)c1ccccc1N=Cc1ccccc1O,-11.2%,-11.9%
CN1C(C(=O)NCc2cccc(Br)c2)CC2Cn3c(nc4cc(Cl)c(Cl)cc43)C21 (configuration not stated),-5.5%,-7.1%
COc1ccc(C(=O)C(C)N(C(=O)c2ccc(Cl)cc2Cl)N2C(=O)C3C4C=CC(C4)C3C2=O)cc1 (configuration not stated),-21.9%,-17.6%
COc1ccc(NC(=S)N(CCCN2CCCC2)Cc2cccs2)cc1,-19.5%,-18.2%
Cc1ccc(-n2ncc3c(=O)n(CC(=O)N4CCN(C(=O)c5ccco5)CC4)cnc32)cc1,-11.3%,-12.2%
COc1cc(OC)c(-c2nn3c(-c4n[nH]c5c4CCC5)nnc3s2)cc1OC,7.08µM*!,u
COc1ccc([C@H]2CC(=O)C=C(c3ccc(CO)cc3)C2)cc1,-0.3%,-6.9%
COc1ccccc1C(=O)Nc1cccc(OCc2cc(=O)n3c4c(sc3n2)CCCC4)c1,4.1%,-1.6%
CC(=O)N1CCOc2ccc(S(=O)(=O)NC[C@H]3O[C@@H](n4ccc(=O)[nH]c4=O)[C@H](O)[C@@H]3O)cc21,-10.8%,-4.7%
Cc1cc(O)c(C=O)c2c1C(=O)Oc1c(CO)c(O)c3c(c1O2)C(O)OC3=O (configuration not stated),-6.5%,9.5%
Clc1ccccc1-c1ncnc2ccc(Br)cc12,-9.4%,-4.1%
COc1ccc(C(=O)N(Cc2ccccc2)c2cccc(C)c2)c(OC)c1OC,i,-6.4%
COc1ccc(CN2C(=O)C(CC(=O)NC3CC3)CC(C(=O)N(C)C)=C2C)cc1 (configuration not stated),-0.3%,-14.4%
CN(C(=O)COC(=O)CNC(=O)c1sc2ccccc2c1Cl)C1CCS(=O)(=O)C1 (configuration not stated),-9.6%,-6.2%
CCOC(=O)C1=NOC2(C1)C(=O)Nc1c(Cl)cccc12 (configuration not stated),-10.1%,4.9%
COc1ccc(S(=O)(=O)N2CCCCCC2)cc1C(=O)N(C)CC(=O)Nc1ccccc1Br,i,-9.8%
O=C(NC(=S)Nc1sc2c(c1C(=O)O)CCCC2)c1ccccc1,i,-13.6%
CSc1nnc(Nc2ccccc2C)s1,-9.2%,-8.3%
CCOC(=O)c1cccc(NC(=O)CC2C(=O)N(c3ccc(C)cc3)C(=O)N2Cc2cccc(OC)c2)c1 (configuration not stated),-5.7%,-3.7%
Cn1c(SCC(=O)O)nnc1-c1cccc(NC(=O)c2cccc3ccccc23)c1,u,u
CC1CC(C)(C)NC(=S)N1CCC(=O)N1c2ccccc2CC1C (configuration not stated),-6.8%,-10.4%

# Rows were taken by chance. Share with any hit: about 0.88%.
